# TRPML1 blocker = inhibitors of human TRPML1 channel; Q9GZU1; TRPML1-inducible cells, Ca2+ dye fluorescence, FDSS; hits give low values; inhibition of EC80 agonist-evoked calcium signal; activity change, negative = inhibition, % (no concentration beside the values); 390,000 compounds, 0.02% hits; AID 624415; in the data active means activity change below about -50%; inconclusive means about -30% to -50%; inactive means above about -30%;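 further: stimulus is agonist 54-4 at its EC80 concentration; on the % scale 0 is the no-effect control and ±100 the full control effect; compound concentration not given in the record; the text of the record puts the active cut at -80%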
# Target sequence (Q9GZU1 whole entry, looked up): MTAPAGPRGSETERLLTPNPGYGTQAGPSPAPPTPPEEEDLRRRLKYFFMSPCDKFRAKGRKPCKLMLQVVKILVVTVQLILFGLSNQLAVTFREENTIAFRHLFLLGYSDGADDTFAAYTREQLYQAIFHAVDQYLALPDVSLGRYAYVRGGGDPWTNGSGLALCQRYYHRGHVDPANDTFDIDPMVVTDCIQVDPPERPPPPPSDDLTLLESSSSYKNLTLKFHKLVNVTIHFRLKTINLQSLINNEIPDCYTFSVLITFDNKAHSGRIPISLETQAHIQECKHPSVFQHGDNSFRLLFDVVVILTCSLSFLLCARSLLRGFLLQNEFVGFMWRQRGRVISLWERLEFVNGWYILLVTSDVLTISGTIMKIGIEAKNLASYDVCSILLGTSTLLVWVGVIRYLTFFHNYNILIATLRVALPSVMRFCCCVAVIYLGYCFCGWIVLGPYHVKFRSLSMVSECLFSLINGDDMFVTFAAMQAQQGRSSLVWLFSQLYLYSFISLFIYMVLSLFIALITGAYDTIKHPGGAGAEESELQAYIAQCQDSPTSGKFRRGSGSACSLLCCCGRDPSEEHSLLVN
#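 Tet-induced TRPML1-DL cells loaded with Ca8 no-wash calcium dye were read kinetically on FDSS. Compound addition was followed by EC80 agonist 54-4 (4 uM final); inhibition was read over 110 s.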
# PINK1 expr mod = PINK1 expression modulation; AID 624263; PINK1 immunofluorescence, high-content cytometry, 24 h; Potency, µM (doses to about 76.6 µM), without a hit: at the highest dose activation (PINK1 increase), most hits filed as activators; 410,000 compounds, 0.2% hits; active = well fitted activation curve with a large enough effect; inconclusive = small, poorly fitted or top-dose-only effect; inactive = flat fitted curve, though single readings scatter; cell line not stated here;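 further: potency means the concentration at half of the fitted maximal effect; % of control where 0% means no effect; nearly all actives have a fitted effect of over 65% in size; a mitochondrial uncoupler was the plate control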
#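 Readout is PINK1 immunofluorescence, quantified alongside mitochondrial, cell and nuclear markers by laser-scanning microplate cytometry. Cells from a stable line were exposed to compound titrations (5 concentrations) for 24 hours, with CCCP controls.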
# D2 agonist = human D2 receptor agonism in beta-arrestin assay | P14416 | DiscoveRx PathHunter D2 beta-arrestin, luminescence, 90 min; 100% = 57 uM dopamine signal | activation, % (concentration not given with the values) | 360,000 compounds, 0.084% hits | AID 624465; in the data active = activation above about 40%; inconclusive = about 15% to 40%; inactive = below about 15%; further: the text of the record calls up to 30% inactive
# Target sequence (P14416 whole entry, looked up): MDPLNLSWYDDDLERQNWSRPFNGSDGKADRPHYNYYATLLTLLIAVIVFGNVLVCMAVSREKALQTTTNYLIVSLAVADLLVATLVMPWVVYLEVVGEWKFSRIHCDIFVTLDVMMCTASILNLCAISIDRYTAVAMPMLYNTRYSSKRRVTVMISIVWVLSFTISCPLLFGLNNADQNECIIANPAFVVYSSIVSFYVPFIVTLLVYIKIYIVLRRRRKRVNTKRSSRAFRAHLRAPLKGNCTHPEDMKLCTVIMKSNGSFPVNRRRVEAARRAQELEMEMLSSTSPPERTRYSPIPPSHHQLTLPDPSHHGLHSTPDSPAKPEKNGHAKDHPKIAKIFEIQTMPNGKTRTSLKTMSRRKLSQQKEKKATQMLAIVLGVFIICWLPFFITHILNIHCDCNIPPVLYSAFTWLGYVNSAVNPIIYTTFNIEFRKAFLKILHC
#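 DiscoveRx PathHunter D2 beta-arrestin cells (2,100/well) attached overnight, then compound-stimulated 90 min at 37 C in HBSS/10 mM HEPES/0.1% Tween-20 buffer; beta-galactosidase complementation read by luminescence after 1 h at ambient temperature. Dopamine 57 uM final (EC100) as control.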
# TRPML1 ag = agonists of human TRPML1 channel. Q9GZU1. TRPML1-expressing cells, Ca2+ dye fluorescence, FDSS; host cell line not named in the record; reference of the full effect not given here. activation, % (no concentration beside the values). 410,000 compounds, 0.12% hits. AID 624414; in the data active = activation above about 50%; inconclusive = about 30% to 50%; inactive = below about 30%; further: 0% is about no effect; the text of the record puts the active cut at 80%
#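 In this qHTS format, compounds were pin-transferred onto Ca8-dye-loaded TRPML1-DL cells induced with Tet overnight, and intracellular Ca2+ fluorescence was recorded kinetically for 110 s after a 10 s baseline. A subsequent 4uM final 54-4 (EC80) addition followed by a second 110 s read served as the antagonist phase.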
# D2 potentiator = positive allosteric modulators of human D2 dopamine receptor; P14416; DiscoveRx D2 beta-arrestin cells, luminescence, 90 min; 100% = 57 uM dopamine signal; potentiation, % (no concentration beside the values); 360,000 compounds, 0.23% hits; AID 624464; active = potentiation of 50% or more; inconclusive = 30% to 50%; inactive = 30% or less;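 further: compound concentration not given in the record; tested on top of an EC20 dose of dopamine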
#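 PathHunter beta-arrestin assay in DiscoveRx D2 cells. Compounds were added with an EC20 of dopamine (50 nM final) for 90 min at 37 deg C. Luminescence was read 1 h after detection reagent, with 57 uM dopamine as the EC100 control.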
# Six1-Eya2 blk = Six1/Eya2 interaction inhibition | activity change, % (concentration not given with the values) | 360,000 compounds, 0.56% hits | AlphaScreen GST-Six1/His-Eya2 binding, biochemical; hits give low values; control for the full effect not named in the record; in the data active = activity change below about -65%; inconclusive = about -30% to -65%; inactive = above about -30%; further: on the % scale 0 is the no-effect control and ±100 the full control effect
#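 AlphaScreen with GST-Six1 and His-Eya2 (5X mix: 250 nM and 500 nM), glutathione donor and nickel acceptor beads; buffer 50 mM Tris pH 8.0, 300 mM NaCl, 1 mM TCEP; 1 h at 37 C in the dark.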
# * marks the source's active call; other numbers are inactive results; u = inconclusive; x = not tested or not shown; [ ] = remark or other dose.
SMILES,TRPML1 blocker,PINK1 expr mod,D2 agonist,TRPML1 ag,D2 potentiator,Six1-Eya2 blk
COc1ccc(S(=O)(=O)CCC(=O)N2c3ccccc3CC2C)cc1 (configuration not stated),6,1.0%,-3.4,-0.7,-4,-5
CCn1c2ccccc2c2cc(NC(=O)CCCN3C(=O)CCC3=O)ccc21,-9,3.4%,-0.6,0.3,-5,-2
COc1ccccc1N=c1scc(-c2ccc3c(c2)NC(=O)CO3)n1CC1CCCO1 (configuration not stated),2,1.9%,-5.0,1.5,-12,-18
CN1CCN(c2ccc(NC(=O)C(C)(c3ccccc3)c3ccccc3)cc2)CC1,12,-0.9%,-0.8,1.6,-10,-19
CCCCNC(=O)c1cc2ccccc2s1,25,0.4%,-1.1,2.5,-18,-3
Cc1cc(C)cc(NC(=O)CSc2nnnn2-c2cccnc2)c1,-6,2.5%,2.8,-0.8,-5,5
COc1ccc(C(=O)COC(=O)CCNS(=O)(=O)c2ccccc2)cc1Br,-13,1.5%,0.4,-0.4,-29,0
Cc1ccc(Oc2ccc(C(F)(F)F)cc2[N+](=O)[O-])c([N+](=O)[O-])n1,12,1.6%,5.2,2.1,2,-9
O=C(O)/C=C\C(=O)Nc1ccccc1C#Cc1ccc(Br)cc1,3,13%[38.3 µM],1.6,4.2,-3,27
CC1(C)CC(=O)c2cc(OCC(=O)N3CCCCCC3)ccc2O1,-3,-5.3%[38.3 µM],-2.5,0.3,-8,2
COc1ccc(C(=O)c2sc3nc(C)cc(-c4cccs4)c3c2N)cc1OC,-21,3.6%,5.2,52*,5,29
Cc1ccsc1C(=O)c1sccc1C,13,2.3%,-2.5,1.6,-3,-2
O=C(/C=C/c1ccc([N+](=O)[O-])cc1)N1CCN(S(=O)(=O)c2cccs2)CC1,-1,4.9%,-3.8,-0.8,-11,-5
O=C(CCCN1C(=O)c2ccccc2C1=O)Nc1c2c(nc3c1CCC3)CCC2,-4,0.6%,-5.1,0.0,-25,4
COc1ccccc1-n1nnnc1SCC(=O)NC(=O)Cc1ccccc1,-10,0.2%,-2.3,1.8,-5,-2
CCc1cc(=O)oc2cc(OCC(=O)N(CC)CC)c(Cl)cc12,5,3.1%,-3.8,-0.2,-2,-4
O=C(CN1C(=O)c2ccc([N+](=O)[O-])cc2C1=O)NCC1CCCO1 (configuration not stated),0,-4.3%,13,0.6,20,4
COc1ccc(NC(=O)CCc2c(C)nc3c(-c4ccc(F)cc4)c(C)nn3c2C)c(OC)c1,0,1.0%,x,-0.6,x,x
O=C(NCCc1ccc(Cl)cc1)c1c2c(nc3ccccc13)C(=O)N(C1CCCCC1)C2,-19,3.1%,x,0.2,x,x
C=CCOc1c2ccc(C(=O)NC3CCCc4ccccc43)cc2nn1C (configuration not stated),4,8.5%,0.9,-0.9,-71,6
CCCC(=O)NC(=S)Nc1nc(-c2ccc(OC)cc2)cs1,-5,0.0%,-2.7,-0.4,-13,1
Cc1cccc(N2CCN(C3=NC(=O)/C(=C\c4cn[nH]c4-c4ccccc4)S3)CC2)c1,12,14%,-4.6,1.3,-6,-5
COC(=O)c1ccc(CNC(=O)c2ccc3c(c2)OCCO3)cc1,-10,1.0%,0.6,-0.5,-13,10
CCCCCCn1cc(CN2CC(N3CCN(C)CC3)CS2(=O)=O)nn1 (configuration not stated),x,-0.2%,x,-0.7,x,2
O=C(CCc1nc2ccccc2c(=O)[nH]1)OCc1ccccc1F,-17,6.6%,-2.7,0.2,-20,-5
# The listing continues.
SMILES,TRPML1 blocker,PINK1 expr mod,D2 agonist,TRPML1 ag,D2 potentiator,Six1-Eya2 blk
S=C(NCC1CCCO1)N1CCN(c2ccccc2)CC1 (configuration not stated),-9,0.9%,2.5,-0.7,-5,-5
CN(Cc1ccccc1)C(=O)c1ccc(NC(=O)Cc2cccc(NC(=O)C3CCN(C(=O)C4CC4)CC3)c2)cc1,14,-0.6%,-8.0,1.1,-10,1
Cc1ccc(NC(=O)CCc2c(C)nc3c(-c4ccccc4)c(C)nn3c2C)c(C)c1,6,1.7%,x,0.2,x,x
O=[N+]([O-])c1cnccc1Nc1ccccc1,24,-2.5%,-2.7,1.1,-1,3
Cc1ccccc1/C(=N\S(=O)(=O)c1ccc(Br)cc1)Nc1ccccc1,3,-0.7%,1.2,-0.5,-19,-3
COc1cc(NC(=O)c2cccs2)cc(OC)c1,-1,0.6%,0.5,-0.3,-17,-3
CC1CCCC(C)N1C(=O)Cn1nnc(-c2ccc([N+](=O)[O-])cc2)n1 (configuration not stated),7,-0.9%,-1.3,-0.1,6,0
CCCOc1cccc(C2C(C(=O)c3ccc(C)o3)=C(O)C(=O)N2c2nc(C)c(C(C)=O)s2)c1 (configuration not stated),32,4.7%,-1.0,3.1,-2,0
Cc1nc2cc(NC(=O)NCc3ccco3)ccc2o1,-17,0.9%[38.3 µM],1.9,0.6,6,0
CC(C)N1CCC(N2CCN(C3CCCCC3)CC2CCO)CC1 (configuration not stated),-5,2.6%,1.2,0.9,-7,5
COc1cc2ccccc2cc1C(=O)Nc1ccc(Cc2ccncc2)cc1,6,3.8%[38.3 µM],1.6,-0.6,13,-9
OC(CNCC1CCCO1)Cn1c2ccc(Br)cc2c2cc(Br)ccc21 (configuration not stated),3,-3.2%,1.6,2.1,-15,-1
COc1ccccc1CNC(=O)C(Cc1ccccc1)NS(=O)(=O)c1ccc2c(c1)oc(=O)n2C (configuration not stated),2,1.1%,x,1.0,x,x
O=C(COC(=O)c1ccccc1O)Nc1cccc(S(=O)(=O)NC2=NCCCCC2)c1,-14,2.3%,-0.3,0.1,-3,0
Cc1ccc(OCc2n[nH]c(=S)n2-c2ccccc2)cc1,24,-0.4%,6.9,1.0,-7,-5
CCN(Cc1ccccc1)C(=O)c1cc2c(OC)c(OC)c(OC)cc2[nH]1,4,3.6%,-3.4,1.7,-30,-10
Cc1ccc(S(=O)(=O)Nc2ccc3c4c(cccc24)CC3)c(C)c1,0,10%,-0.8,0.1,15,-6
CCN(C(=O)COC(=O)CCCc1nc2ccccc2s1)c1c(N)n(Cc2ccccc2)c(=O)[nH]c1=O,-6,-0.4%,0.8,0.1,-6,7
CCOC(=O)NC(=O)c1cn(Nc2ccccc2C(F)(F)F)c(=O)[nH]c1=O,3,-1.0%,-5.0,0.2,-4,0
COc1cccc(N/C=C/C(=O)c2ccc(OC)c(OC)c2)c1,0,1.8%,-2.4,0.0,5,3
COc1ccccc1NC(=O)Cn1nnc(-c2ccccc2NC(=O)c2cnccn2)n1,2,4.7%,-0.8,0.0,-11,1
CCc1ccc([C@@H]2CC=C(C(=O)O)[C@H](c3ccc(F)cc3)N2S(=O)(=O)c2ccc(C)cc2)cc1,11,0.1%,-0.2,-0.1,-1,-1
O=C(CSc1ncn[nH]1)Nc1nc(-c2ccccc2)cs1,11,1.2%,-2.9,0.3,-10,-3
COc1ccc(CNS(=O)(=O)c2ccc(F)c(C(=O)Nc3ccccc3OC)c2)cc1,-11,18%,-3.8,0.6,1,0
Cc1ccc2cc(C(c3nnnn3C(C)(C)C)N3CCCCCC3)c(=O)[nH]c2c1 (configuration not stated),-2,1.3%[38.3 µM],0.0,-0.2,-5,3

# Given with bars between the fields: seven of the compounds above.
smiles | TRPML1 blocker | PINK1 expr mod | D2 agonist | TRPML1 ag | D2 potentiator | Six1-Eya2 blk
Cc1ccccc1/C(=N\S(=O)(=O)c1ccc(Br)cc1)Nc1ccccc1 | 3 | -0.7% | 1.2 | -0.5 | -19 | -3
COc1cccc(N/C=C/C(=O)c2ccc(OC)c(OC)c2)c1 | 0 | 1.8% | -2.4 | 0.0 | 5 | 3
CCOC(=O)NC(=O)c1cn(Nc2ccccc2C(F)(F)F)c(=O)[nH]c1=O | 3 | -1.0% | -5.0 | 0.2 | -4 | 0
OC(CNCC1CCCO1)Cn1c2ccc(Br)cc2c2cc(Br)ccc21 (configuration not stated) | 3 | -3.2% | 1.6 | 2.1 | -15 | -1
CCCOc1cccc(C2C(C(=O)c3ccc(C)o3)=C(O)C(=O)N2c2nc(C)c(C(C)=O)s2)c1 (configuration not stated) | 32 | 4.7% | -1.0 | 3.1 | -2 | 0
COc1cc(NC(=O)c2cccs2)cc(OC)c1 | -1 | 0.6% | 0.5 | -0.3 | -17 | -3
COc1ccccc1NC(=O)Cn1nnc(-c2ccccc2NC(=O)c2cnccn2)n1 | 2 | 4.7% | -0.8 | 0.0 | -11 | 1

# Remaining list, next part.
SMILES,TRPML1 blocker,PINK1 expr mod,D2 agonist,TRPML1 ag,D2 potentiator,Six1-Eya2 blk
Cc1ccc(C(C(=O)NCc2ccco2)N(C(=O)CNC(=O)c2cccs2)c2c(C)cccc2C)cc1 (configuration not stated),42,u,4.1,0.9,0,-1
CCC(C)(C)NC(=O)CN(C(=O)c1ccc(N2CCCC2)nc1)c1ccc(F)cc1,x,3.8%,4.5,x,6,2
COc1ccc(NC(=O)C2CC(c3cccc(Br)c3)=NO2)cc1OC (configuration not stated),5,1.3%,-0.1,-0.8,-4,5
COc1cccc2cc(C(=O)NCCc3c[nH]c4ccccc34)c(=O)oc12,2,3.1%,-0.5,6.4,-4,-24
O=C(NCc1ccco1)c1cccn2c(=O)c3c4c(sc3nc12)CCCC4,10,4.0%,3.7,0.3,-14,-28
O=C(C(Cc1ccc(Cl)cc1)NS(=O)(=O)c1ccccc1)N1CC[C@@]2(O)CCCC[C@H]2C1 (some centres not stated),-7,-0.1%,-5.8,0.4,4,-23
CCCCC1CCC(C(=O)N(CCC(C)C)c2c(N)n(CCCC)c(=O)[nH]c2=O)CC1 (configuration not stated),-4,2.2%,-3.1,0.4,-2,0
Clc1ccc(-c2c(C3=NCCCN3)nnn2-c2ccc(Cl)cc2)cc1,44,-2.3%,-3.7,1.6,-32,0
Cc1nn(CC(=O)NC2(C)CCS(=O)(=O)C2)c(C)c1S(=O)(=O)N(C)C (configuration not stated),11,-0.1%,2.5,1.3,-1,2
O=C(Nn1c(-c2ccc(F)cc2)nc2ccccc2c1=O)c1cccnc1,14,-1.2%,-3.6,-0.2,-2,-7
O=C(CN1C(=O)C2C3C=CC(C3)C2C1=O)NC1CCCc2ccccc21 (configuration not stated),-3,0.8%,2.0,0.6,5,8
Cc1nn(C)c(C)c1S(=O)(=O)N(CC(=O)Nc1ccccn1)c1ccc(C(C)C)cc1,-7,0.7%,-0.3,-1.0,-2,-3
COc1ccc(NC(=O)c2ccccc2SCc2ccccc2)cc1,-1,1.5%,-4.1,1.1,-9,-18

# Grouped by structure: the entries above with a furan ring, fused or not (4)
SMILES,TRPML1 blocker,PINK1 expr mod,D2 agonist,TRPML1 ag,D2 potentiator,Six1-Eya2 blk
CCCOc1cccc(C2C(C(=O)c3ccc(C)o3)=C(O)C(=O)N2c2nc(C)c(C(C)=O)s2)c1 (configuration not stated),32,4.7%,-1.0,3.1,-2,0
Cc1nc2cc(NC(=O)NCc3ccco3)ccc2o1,-17,0.9%[38.3 µM],1.9,0.6,6,0
Cc1ccc(C(C(=O)NCc2ccco2)N(C(=O)CNC(=O)c2cccs2)c2c(C)cccc2C)cc1 (configuration not stated),42,u,4.1,0.9,0,-1
O=C(NCc1ccco1)c1cccn2c(=O)c3c4c(sc3nc12)CCCC4,10,4.0%,3.7,0.3,-14,-28

# No enrichment for hits; 1% or so of the library scored in one or more.
